Screening data from PubChem BioAssay.
D2 agonist: activates the human D2 dopamine receptor. DiscoveRx PathHunter D2 beta-arrestin, luminescence, 90 min; 100% = 57 uM dopamine signal. hit rate 0.084% among 360,000. activation, % (no concentration beside the values); in the data active = activation above about 40%; inconclusive = about 15% to 40%; inactive = below about 15%; also: compound concentration not given in the record; the text of the record calls up to 30% inactive
Target sequence (P14416 whole entry, looked up): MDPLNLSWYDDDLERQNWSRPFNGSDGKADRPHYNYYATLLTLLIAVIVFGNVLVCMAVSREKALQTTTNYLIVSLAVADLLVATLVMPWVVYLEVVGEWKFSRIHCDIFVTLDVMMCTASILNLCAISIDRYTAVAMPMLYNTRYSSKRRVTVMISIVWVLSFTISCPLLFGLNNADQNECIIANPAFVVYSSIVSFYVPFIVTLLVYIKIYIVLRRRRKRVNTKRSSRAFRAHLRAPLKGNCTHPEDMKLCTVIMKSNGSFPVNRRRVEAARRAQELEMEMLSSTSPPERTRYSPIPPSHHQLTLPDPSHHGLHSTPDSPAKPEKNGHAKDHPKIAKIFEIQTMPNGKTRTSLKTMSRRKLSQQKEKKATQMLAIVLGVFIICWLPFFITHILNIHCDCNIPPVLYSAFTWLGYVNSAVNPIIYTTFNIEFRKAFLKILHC
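DiscoveRx PathHunter D2 beta-arrestin cells (2,100/well) attached overnight, then compound-stimulated 90 min at 37 C in HBSS/10 mM HEPES/0.1% Tween-20 buffer; beta-galactosidase complementation read by luminescence after 1 h at ambient temperature. Dopamine 57 uM final (EC100) as control.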
gsp agonist: agonists of gsp mutant (McCune-Albright syndrome). gsp mutant cells, cAMP HTRF, 30 min; control for the full effect not named in the record. Potency, µM (series often up to 76.9 µM), without a hit: top-dose activation (cAMP increase), most hits filed as activators. hit rate 0.13% among 340,000; active = well fitted activation curve with a large enough effect; inconclusive = small, poorly fitted or top-dose-only effect, or another doubt; inactive = no such curve, though single readings can be large or run the other way; cell line not stated here;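 also: phosphodiesterase inhibitor Ro 20-1724 added with compounds to block cAMP breakdown; potency is read from the fitted curve at half-maximal effect; nearly all actives have a fitted effect of over 60% in size; about a fifth of the inactives were tested at one dose only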
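Cells in DMEM/10% FBS with G418 were pretreated with compounds in DMSO plus […] (300 uM stock) for 30 min at 37C. cAMP was measured by HTRF (cAMP-d2 plus anti-cAMP antibody-K) after 30 min at room temperature.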
CtBP-E1A blk: CtBP/E1A binding inhibition; activity change, % (concentration not given with the values); AlphaScreen GST-E1A/His-CtBP binding, 1536-well; active compounds read low; control for the full effect not named in the record; hit rate 0.49% among 340,000; in the data active means activity change below about -65%; inconclusive means about -30% to -65%; inactive means above about -30%; also: % is scaled to controls: 0 for no effect and ±100 for the full control effect
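Steps: dispense buffer (Tris pH 8.0, NaCl 300 mM, TCEP 1 mM, BSA, Tween 20); add 5X protein mix (GST-E1A, His-CtBP, 125 nM each); pin 23 nL compound; 2 h at 37 °C, dark; add 5X beads (50 ug/mL); 1 h; read.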
gsp antagonist: antagonists of gsp mutant (McCune-Albright syndrome); gsp-mutant cells, cAMP HTRF, 30 min; control for the full effect not named in the record; hit rate 0.4% among 340,000; Potency, µM (doses to about 76.9 µM), without a hit: at the highest dose activity change, negative = inhibition, usual class: inhibitors; active = falling curve of any shape with a large fitted effect; inconclusive = falling curve, mostly with a smaller effect; inactive = flat or rising curve; cell line not stated here;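 also: intracellular cAMP measured with PDE inhibitor Ro 20-1724 present during compound exposure; potency is read from the fitted curve at half-maximal effect; % is scaled to controls: 0 for no effect and ±100 for the full control effect; nearly all actives have a fitted effect of over 65% in size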
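Cells in G418 medium, seeded 16-24 h, 37C; buffer exchange to DPBS + 1 mM CaCl2, 0.5 mM MgCl2, 0.05% BSA; cpds in DMSO + […] (300 uM stock), 30 min 37C; HTRF cAMP detection.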
Six1-Eya2 blk: blocks human Six1 binding to Eya2 | Q15475+O00167 | AlphaScreen GST-Six1/His-Eya2 binding, biochemical; active compounds read low; control for the full effect not named in the record | activity change, % (test concentration not listed) | hit rate 0.56% among 360,000 | AID 651725; in the data active = activity change below about -65%; inconclusive = about -30% to -65%; inactive = above about -30%; also: % is scaled to controls: 0 for no effect and ±100 for the full control effect
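Six1/Eya2 binding was read as AlphaScreen signal after compounds were pinned into GST-Six1 plus His-tagged Eya2 (5X stock 250/500 nM) in pH 8.0 Tris/NaCl/TCEP buffer, beads added, then incubated 1 h, 37 C, dark.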
D2 PAM: potentiates the human D2 dopamine receptor allosterically; P14416; DiscoveRx D2 beta-arrestin cells, luminescence, 90 min; 100% = 57 uM dopamine signal; potentiation, % (test concentration not listed); hit rate 0.23% among 360,000; active = potentiation of 50% or more; inconclusive = 30% to 50%; inactive = 30% or less;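 also: compound concentration not given in the record; tested on top of an EC20 dose of dopamine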
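PathHunter beta-arrestin assay in DiscoveRx D2 cells. Compounds were added with an EC20 of dopamine (50 nM final) for 90 min at 37 deg C. Luminescence was read 1 h after detection reagent, with 57 uM dopamine as the EC100 control.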
* hit, by the source's call; ? = inconclusive; . = not tested or not shown; [ ] = dose if it differs, or a comment.

compound	D2 agonist	gsp agonist	CtBP-E1A blk	gsp antagonist	Six1-Eya2 blk	D2 PAM
O=C(O)C1C2C=CC(O2)C1C(=O)Nc1ccc(S(=O)(=O)N2CCc3ccccc32)cc1 (stereo not drawn)	-1.4	7%	?	3%	-16	-4
CN(C(=O)c1ccc(NC(=O)Cc2ccc(NC(=O)C3CCN(C(=O)C4CCC4)CC3)cc2)cc1)C1CCCC1	1.5	.	7	12%	3	.
Cc1sc(NC(=O)CSc2nnc(C(C)C)n2C)c(C#N)c1C	-4.2	2%	-3	0%	-1	5
COC(=O)[C@@H](NC(=O)NC1CCCCC1C)C(C)C (stereo partly drawn)	0.3	-9%	11	9%	-6	0
COc1c2c(c(C)c3c1C(=O)OC3)O[C@@]1(C)CC[C@@]3(O)C(C)(C)OC(=O)CC[C@]3(C)[C@H]1C2	0.0	-170%[inhibitor]	1	-2%	-5	0
COC(=O)/C(C#N)=C/c1c(Oc2cccc(C)c2)nc2ccccn2c1=O	-0.3	11%	6	-14%	2	-10
COc1ccc2[nH]c(=O)c(CNc3ccccc3OC)cc2c1	1.6	36%[15.4 µM]	-7	-6%	-6	2
Cc1cc(C(=O)N/N=C2\CCCC(=O)C2)c(C)o1	-0.3	12%[15.4 µM]	2	2%	4	4
COC(=O)c1ccccc1NC(=O)CN1C(=O)c2ccccc2S1(=O)=O	0.8	-44%[inhibitor]	8	-9%	-1	-5
CCC(NC(=O)N(Cc1ccccc1)Cc1ccc2c(c1)OCO2)(C(F)(F)F)C(F)(F)F	-1.9	18%	-1	9%	4	-12
Cc1ccc(-c2csc3ncnc(N4CCN(C)CC4)c23)cc1C	-1.8	11%	-18	1%	-4	-20
CN1CCN(c2ccc(CNC(=O)C3(C)Cc4c(-c5ccc6c(c5)OCO6)ccnc4O3)cc2)CC1 (stereo not drawn)	-5.6	.	-15	.	1	-14
O=C(CSc1nnc(-c2ccco2)n1-c1ccccc1)N1CCN(C(=O)c2ccco2)CC1	-1.7	-14%	4	-25%	0	1
COc1cc(NC(=O)c2ccc([N+](=O)[O-])cc2)c(OC)cc1NC(=O)CC(C)C	3.1	-21%	-7	9%	0	11
COc1cc2[nH]c(=S)nc(NCc3cccc(Cl)c3)c2cc1OC	11	27%	.	6%	?	-4
Cc1csc(NC(=O)CCn2c(=O)oc3ccc(Cl)cc32)n1	3.0	-6%	2	-7%	0	-7
O=C(CSc1nc2ccccc2s1)CSc1nc2ccccc2s1	4.8	7%	-14	?	3	-7
CCOc1ccc(-c2nc(-c3cccs3)c(CC(=O)O)s2)cc1OC	-1.3	-6%[15.4 µM]	13	-30%	1	-2
O=C(/C=C/C=C/c1ccccc1)c1ccco1	-2.9	-3%	.	-21%	-4	-4
CCOc1ccc(NC(=S)N2CCN(C/C=C/c3ccccc3)CC2)cc1	-2.3	-9%[15.4 µM]	-3	2%	-21	-14

Of the compounds above, these have a thiophene ring, fused or not.
compound	D2 agonist	gsp agonist	CtBP-E1A blk	gsp antagonist	Six1-Eya2 blk	D2 PAM
Cc1sc(NC(=O)CSc2nnc(C(C)C)n2C)c(C#N)c1C	-4.2	2%	-3	0%	-1	5
Cc1ccc(-c2csc3ncnc(N4CCN(C)CC4)c23)cc1C	-1.8	11%	-18	1%	-4	-20
CCOc1ccc(-c2nc(-c3cccs3)c(CC(=O)O)s2)cc1OC	-1.3	-6%[15.4 µM]	13	-30%	1	-2

Next structures follow:
compound	D2 agonist	gsp agonist	CtBP-E1A blk	gsp antagonist	Six1-Eya2 blk	D2 PAM
C[C@@]12C(=O)N(CC3CC3)CC(=O)N1[C@H](/C=C/c1ccccc1)[C@@H]1C(=O)N(c3ccccc3)C(=O)[C@@H]12	-0.9	.	3	2%	1	-35
COCCCN1CC(=O)N2C(c3ccc(C)cc3)c3[nH]c4ccccc4c3C[C@H]2C1=O (stereo partly drawn)	-3.2	-2%[15.4 µM]	-1	6%	-2	-16
S=c1[nH]ncn1/N=C/c1ccccc1	-0.5	-10%	9	-12%	2	-10
Cc1cc(NC(=O)CSc2ccc3nnc(-c4ccc(Cl)cc4)n3n2)no1	1.3	-9%	-8	-3%	-3	7
CCC(=O)N1CCc2cc(Br)cc(S(=O)(=O)CCC(=O)NCCc3ccccc3)c21	-2.3	21%	-7	-18%	-5	-6
CCOC(=O)N1CCN(CC(=O)Nc2nnc(C(F)(F)F)s2)CC1	-0.5	-2%	.	-1%	-7	-3
Cc1ccc(S(=O)(=O)N2CCCCC2)cc1NC(=O)CSc1ncccn1	2.8	?	-30	0%	-11	-3
O=C1COc2ccc(C(=O)COC(=O)Cc3ccc(F)cc3)cc2N1	-3.9	-11%[15.4 µM]	-10	-1%	5	-18
Cc1ccc(NC(=O)Nc2cnccn2)c(C)c1	-5.8	-63%[inhibitor]	-19	9%	-13	-9
COc1ccc(-n2nc(C(=O)NCC(=O)N3CC(C)CC(C)C3)c3ccccc3c2=O)c(OC)c1 (stereo not drawn)	-2.2	4%	1	-9%	-1	-4
CC1CCc2sc(C(=O)OCC(=O)NCc3ccc(F)cc3)cc2C1 (stereo not drawn)	-2.0	16%	5	6%	11	7
Cc1ccc(C2=NN(CC(=O)NCc3ccco3)C(=O)CC2)cc1	-2.1	3%	0	17%	-7	-8
CN(C)c1ccc(/C=C(/NC(=O)c2ccccc2)C(=O)N/N=C/c2ccc([N+](=O)[O-])c(O)c2)cc1	-6.1	-9%	?	?	?	-15
CC1(C)CC(=O)C(C=NCCCN2CCCC2=O)=C(O)C1	0.3	-20%	3	7%	2	-7
CC(C)(C)c1ccc(-c2nc(NCc3cccnc3)c3ccccc3n2)cc1	0.9	10%	-4	?	-8	-3
O=C(c1ccccc1)c1ccc(-n2ccnc2)c([N+](=O)[O-])c1	1.5	1%	-3	-15%	15	1
CN(C)c1cccc(C(=O)OC(C(=O)Nc2ccc([N+](=O)[O-])cc2Br)c2ccccc2)c1 (stereo not drawn)	0.6	-19%[15.4 µM]	7	9%	?	9
O=S(=O)(NCC1CCCO1)c1cc(Cl)ccc1Cl (stereo not drawn)	0.5	-29%	0	-3%	5	11
CCCCCn1c(N2CCC(Cc3ccccc3)CC2)nc2c1c(=O)[nH]c(=O)n2C	-5.2	-34%[inhibitor]	-21	2%	?	-4
CC(C)(C)NC(=O)NC(=O)COc1ccccn1	-4.1	-34%[inhibitor]	0	24%	23	-15
O=C(NCCCn1ccnc1)/C(=C/c1ccco1)NC(=O)c1ccco1	-6.0	58%	-11	-2%	-3	-7
Cc1ccc(NS(=O)(=O)c2ccc(-c3coc(C)n3)cc2)c(C)c1	0.4	-20%	9	-1%	0	5
N/C(=N\OC(=O)Cc1ccccc1)c1cccnc1	1.7	15%	-7	11%	3	-1
COc1ccc([N+](=O)[O-])cc1NC(=O)CCc1ccccc1	-2.0	10%	5	-2%	-3	-21
CCOC(=O)C(CC)(CC)C(=O)/C=C/c1ccc(OC)cc1	-5.0	-25%	-12	-9%	1	-13
COc1ccc(C2C(C#N)=C(C)NC3=C2C(=O)c2ccccc23)cc1 (stereo not drawn)	-7.3	-85%[inhibitor]	-8	-4%	-9	-21
O=S(=O)(c1cc(Cl)sc1Cl)N1CCCC1	-0.5	-29%	.	8%	13	-11
COc1ccc(C(=O)NCc2oc(-c3ccccc3)cc2C(=O)O)cc1	-2.1	-46%[inhibitor]	3	-11%	-1	15
CCc1ccc(/C=C2/SC(=S)N(CCC(=O)Nc3cccnc3)C2=O)cc1	-2.0	10%	5	17%	1	-6
CC(C)CNC(=O)c1ccc(NC(=O)c2cccs2)cc1	-1.8	-5%	1	10%	-1	-11
Cc1cc(NCc2ccccc2Cl)n2nnnc2n1	-3.2	-6%	-10	-7%	-17	-3
O=C(c1cc(-c2cccs2)nc2ccccc12)N1CCN(c2ccccc2)CC1	-2.0	1%[15.4 µM]	-18	-9%	-21	8
CC1CN(C(=O)COC(=O)c2ccc(N)c([N+](=O)[O-])c2)CC(C)O1 (stereo not drawn)	-1.6	14%[15.4 µM]	-19	6%	-3	-2
COC(=O)c1ccc(CNC(=O)CSc2nnc(COc3ccccc3)n2C)o1	-2.1	22%	1	-4%	-6	4
O=C(Nc1ccc(Sc2ccc(Br)cc2)cc1)c1ccco1	1.5	-31%[inhibitor]	4	?	2	19
O=C(CSc1ccc(Cl)cc1)NN=C1CCCCCC1	3.1	1%	6	7%	8	0
Cc1c(NC(=O)c2c([N+](=O)[O-])cnn2C)c(=O)n(-c2ccccc2)n1C	5.0	-43%[inhibitor]	2	4%	12	0
O=C(Cc1ccccc1)Nc1ccc(SC(F)F)cc1	-1.0	8%[15.4 µM]	7	2%	3	-8
O=c1[nH][nH]c2nc(C(F)(F)F)cc(C(F)(F)F)c12	0.8	-4%	9	1%	0	-4
COc1ccccc1[C@]1(C)ON(c2ccccc2C(F)(F)F)C1=O	-0.4	.	4	-3%	-2	-6
COCCN(C(=O)COC(=O)c1ccccc1NCc1ccco1)c1c(N)n(Cc2ccccc2)c(=O)[nH]c1=O	-2.3	?	6	-7%	-7	-1
CN1CCN(C(=O)/C(=C\c2ccc3c(c2)OCO3)NC(=O)c2cccs2)CC1	3.8	29%[15.4 µM]	.	8%	2	-11
O=C(Nc1ccc(Cl)cc1)c1cc(S(=O)(=O)N2CCOCC2)cs1	-1.4	6%	-4	-26%	-2	-7
Cc1ccc(-c2nnn(CC(=O)N(Cc3ccccc3F)C(C(=O)NC3CCCC3)c3ccncc3)n2)o1 (stereo not drawn)	-2.0	-24%	0	-5%	0	-12
CCc1cc(=O)oc2cc(OCC(N)=O)c(Cl)cc12	0.4	-30%	-5	-4%	4	12
C[C@@H]1CN([C@H](C)CO)C(=O)CCCn2cc(nn2)CO[C@H]1CN(C)S(=O)(=O)c1ccc(Oc2ccccc2)nc1	-2.5	-89%[inhibitor]	-22	.	8	-14
CN(CCOc1ccc(Cl)cc1)C(=O)c1cccc(S(=O)(=O)N2CCN(c3ccccc3)CC2)c1	-1.3	-36%[inhibitor]	-17	?	-6	-4
COC(=O)c1cccc(NC(=O)C(C)N2C(=O)c3ccccc3C2=O)c1 (stereo not drawn)	-1.5	-106%[inhibitor]	9	4%	8	5
COc1ccc(S(=O)(=O)N2CCCCCC2)cc1C(=O)N(C)Cc1ccc(Cl)cc1Cl	0.1	30%[15.4 µM]	-10	4%	1	7
